Bioassay records from PubChem.
YopH PTP inh = YopH (Yersinia) phosphatase inhibition; inhibition, %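 (about 10 µM by stock and volumes)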; 140,000 compounds, 0.16% hits; fluorescence Ex485/Em525; AID 898;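 active = inhibition of 50% or more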;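 note: controls were vehicle for no effect and minimum signal wells for full effect; inactives centre near -20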
RecA splice inh = inhibitors of M. tuberculosis RecA intein splicing; P9WHJ3; 290,000 compounds, 0.75% hits; cell-free RecA intein splicing, fluorescence; AID 2221; inhibition, %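 (about 9 µM by stock and volumes)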; in the data active = inhibition above about 30%; inconclusive = no clear call, values can overlap the other calls;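 note: 0% = vehicle wells and 100% = reference inhibitor control wells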
Target sequence (P9WHJ3 whole entry, looked up, canonical isoform): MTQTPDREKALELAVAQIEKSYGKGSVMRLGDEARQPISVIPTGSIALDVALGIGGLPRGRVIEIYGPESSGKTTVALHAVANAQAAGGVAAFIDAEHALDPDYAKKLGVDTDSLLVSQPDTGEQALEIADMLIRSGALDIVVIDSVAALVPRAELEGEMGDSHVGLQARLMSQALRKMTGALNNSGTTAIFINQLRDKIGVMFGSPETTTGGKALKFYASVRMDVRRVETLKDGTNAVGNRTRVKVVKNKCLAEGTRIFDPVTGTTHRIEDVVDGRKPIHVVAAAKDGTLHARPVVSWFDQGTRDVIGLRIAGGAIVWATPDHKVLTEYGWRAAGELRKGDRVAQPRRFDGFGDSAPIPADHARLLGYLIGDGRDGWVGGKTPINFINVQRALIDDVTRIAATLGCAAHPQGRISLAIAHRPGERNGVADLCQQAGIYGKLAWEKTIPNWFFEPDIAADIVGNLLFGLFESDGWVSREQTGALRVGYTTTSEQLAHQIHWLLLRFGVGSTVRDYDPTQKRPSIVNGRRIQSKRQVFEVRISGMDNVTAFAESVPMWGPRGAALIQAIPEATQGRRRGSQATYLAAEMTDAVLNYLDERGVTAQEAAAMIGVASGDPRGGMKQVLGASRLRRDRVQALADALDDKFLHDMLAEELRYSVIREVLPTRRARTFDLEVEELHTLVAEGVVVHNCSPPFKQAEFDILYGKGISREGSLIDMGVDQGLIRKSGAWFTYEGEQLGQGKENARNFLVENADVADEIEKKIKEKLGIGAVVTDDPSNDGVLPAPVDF
Arbovirus inh = arbovirus infection inhibition | arbovirus infection cell-based antiviral screen | inhibition, % at 10 µM | 200,000 compounds, 0.37% hits;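 active = inhibition from about 30%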;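 note: bluetongue infection of BSR cells; cell survival read as ATP light after 72 h; 0% = infected wells without compound and 100% = uninfected wells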
Mtb betalactam = beta-lactam sensitization of Mtb H37Rv. M. tuberculosis H37Rv growth with meropenem, percent inhibition; hits of this screen are not shown here. inhibition, % at 25 µM. 330,000 compounds, 0.27% hits;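 active = about 74% or more and at least 40 points above the plate without the antibiotic, then above 30% in a dose series; inconclusive = first-round hits that could not be retested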;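 note: growth measured after seven days incubation then overnight dye step; 0% = bacteria only wells and 100% = bacteria with antibiotic; twin plates without the antibiotic show which effects depend on it; some results filed as inactive read as strong as hits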
Mtb H37Rv = M. tuberculosis H37Rv growth inhibitors, H37Rv strain (AID 1626); M. tuberculosis H37Rv growth inhibition; higher % means a stronger effect; 220,000 compounds, 0.95% hits; one-dose inhibition, % at 10 µM; IC50 in µM for titrated hits;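 active = confirmed in a dose series; inconclusive = inhibition above 80% but not taken into the dose series; inactive = below 80% or under 30% at every dose of the series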;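 note: bacteria incubated seven days before Alamar blue readout; 0% = bacteria only wells and 100% = bacteria with antibiotic wells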
The depositor's hits bear a star.

How did CCOC(=O)c1nnc(-c2ccc(C)cc2)nc1Sc1ccc(Cl)cc1 do in these assays?
YopH PTP inh: -20; RecA splice inh: 12; Arbovirus inh: 0; Mtb betalactam: 3; Mtb H37Rv: 20%

What do the screens show for `COCCNC(=O)C1CCC(=O)N(c2ccc(OC)cc2)C1c1ccc(OC)c(OC)c1` (stereo not given)?
YopH PTP inh: -16; RecA splice inh: -0.5; Arbovirus inh: -1; Mtb betalactam: -4; Mtb H37Rv: -9%

What do the screens show for `Cc1cc(=O)[nH]c(N/N=C/c2c(C)nn(-c3ccccc3)c2Cl)n1`?
RecA splice inh: 0.7; Mtb betalactam: -4; Mtb H37Rv: -1%

How did O=C(CN(c1ccccc1)S(=O)(=O)c1ccccc1[N+](=O)[O-])Nc1cccnc1 do in these assays?
RecA splice inh: -0.4; Mtb betalactam: 3

What do the screens show for `CCCn1c(=O)c(C(=O)NNC(=O)c2ccc(Cl)cc2Cl)c(O)c2ccccc21`?
RecA splice inh: -1.4; Mtb betalactam: 0

What do the screens show for `C=CCNC(=O)/C(=C/c1ccccc1OCC)NC(=O)c1ccccc1`?
YopH PTP inh: -21; RecA splice inh: -0.6; Arbovirus inh: 1; Mtb betalactam: 5; Mtb H37Rv: -3%

What do the screens show for `COc1c(Cl)ccc(Cl)c1C(=O)NC(=O)N1CCOCC1`?
YopH PTP inh: -40; RecA splice inh: -2.7; Arbovirus inh: 1; Mtb betalactam: inconclusive; Mtb H37Rv: -8%

How did COc1ccc(/C=C/C2=CC(C)(C)NC(=S)N2)cc1OC do in these assays?
RecA splice inh: 1.3; Arbovirus inh: 3; Mtb betalactam: 3; Mtb H37Rv: 4%

Results for CC1(C)CC(NC(=O)C(=O)NCCc2ccccc2)CC(C)(C)N1 ?
RecA splice inh: 1.9; Mtb betalactam: 2; Mtb H37Rv: 12%

Results for CCOC(=O)N1N=C(C)CC1(O)c1ccc(Cl)cc1 (stereo not given) ?
RecA splice inh: 0.3; Arbovirus inh: 0; Mtb betalactam: 0; Mtb H37Rv: 1%

Results for O=C(Nc1cccnc1)c1cc(-c2cccs2)on1 ?
YopH PTP inh: -36; RecA splice inh: -3.0; Arbovirus inh: 0; Mtb betalactam: -9; Mtb H37Rv: -8%

Results for CC1Cc2ccccc2N1C(=O)CN(C)S(=O)(=O)c1cccc2cccnc12 (stereo not given) ?
YopH PTP inh: -20; RecA splice inh: -7.0; Arbovirus inh: -2; Mtb betalactam: 3; Mtb H37Rv: -7%

What do the screens show for `CC(NC(=O)CSc1nc2ccccc2n1C)c1ccccc1` (stereo not given)?
RecA splice inh: -0.3; Mtb betalactam: 2

How did Cc1nc([N+](=O)[O-])cn1CC(=O)c1ccccc1 do in these assays?
RecA splice inh: -1.3; Mtb betalactam: -4; Mtb H37Rv: -2%

Results for CN1CCN(C(=O)C2=C[C@H](C3CC3)C[C@H](OCc3ccc(CO)cc3)O2)CC1 ?
RecA splice inh: -1.1; Mtb betalactam: 3; Mtb H37Rv: 3%

Results for O=C(NC(=S)Nc1ccc(Br)c(Cl)c1)C1CC1 ?
RecA splice inh: 12; Mtb betalactam: 11

How did COc1ccc(/C(O)=C2/C(=O)C(=O)N(CCN(C)C)C2c2cccnc2)cc1C (stereo not given) do in these assays?
RecA splice inh: 0.2; Arbovirus inh: -1; Mtb betalactam: -5; Mtb H37Rv: -2%

How did O=C(C1CC(=O)N(C2CCCCCCC2)C1)N1CCC2(CC1)OCCO2 (stereo not given) do in these assays?
YopH PTP inh: 33; RecA splice inh: 0.0; Arbovirus inh: 2; Mtb betalactam: -13; Mtb H37Rv: -5%

What do the screens show for `Cc1ccc(N(CC(=O)Nc2cc(Cl)ccc2Oc2ccccc2)S(C)(=O)=O)cc1C`?
YopH PTP inh: -4; RecA splice inh: 0.3; Arbovirus inh: -31; Mtb betalactam: 4; Mtb H37Rv: -6%

How did COc1ccc(S(=O)(=O)NCCSCc2ccco2)cc1OC do in these assays?
YopH PTP inh: 24; RecA splice inh: 2.9; Arbovirus inh: 3; Mtb betalactam: -2; Mtb H37Rv: -6%

How did COc1ccc(C(=O)[C@@H]2CC[C@](C)(C(=O)O)C2(C)C)cc1 do in these assays?
RecA splice inh: 2.0; Mtb betalactam: -7

How did CC(=O)Nc1ccccc1OP1(=O)COc2ccccc2OC1 do in these assays?
YopH PTP inh: -30; RecA splice inh: -4.3; Arbovirus inh: 6; Mtb betalactam: 3; Mtb H37Rv: -7%

Results for CCOc1ccc(N(C(C)C(=O)N/N=C(\C)C(C)(C)C)S(C)(=O)=O)cc1 (stereo not given) ?
YopH PTP inh: -30; RecA splice inh: 3.2; Arbovirus inh: 4; Mtb betalactam: -5; Mtb H37Rv: -4%

Results for CS(=O)(=O)N1CCCC(C(=O)N2CCC3(CC2)OCCO3)C1 (stereo not given) ?
YopH PTP inh: -28; RecA splice inh: 0.5; Arbovirus inh: 0; Mtb betalactam: -6; Mtb H37Rv: -10%

Results for COc1ccc(/C=N\NC(=O)C2COc3ccccc3O2)cc1O (stereo not given) ?
RecA splice inh: -3.2; Mtb betalactam: -5; Mtb H37Rv: -6%

Results for COC(=O)CSc1nc(C)cc(C(F)(F)F)c1C#N ?
YopH PTP inh: -12; RecA splice inh: 0.8; Arbovirus inh: -9; Mtb betalactam: 42; Mtb H37Rv: 1%

What do the screens show for `COc1cc(OC)cc(OCC(O)Cn2ccnc2C)c1` (stereo not given)?
YopH PTP inh: -23; RecA splice inh: 5.9; Arbovirus inh: 2; Mtb betalactam: -9; Mtb H37Rv: 4%

What do the screens show for `CC(=O)c1c(O)cc(=O)oc1-c1ccc(C)cc1`?
RecA splice inh: -1.6; Mtb betalactam: -8

Results for CSCCC(NC(=O)COc1ccccc1)C(=O)N1CCN(c2ccccc2O)CC1 (stereo not given) ?
RecA splice inh: -2.2; Mtb betalactam: -2

How did CSc1ccc(C(=O)C2CCCN(C(=O)c3cccnc3SC)C2)cc1 (stereo not given) do in these assays?
RecA splice inh: -0.4; Arbovirus inh: -3; Mtb betalactam: 5; Mtb H37Rv: -11%

Results for FC(F)(F)c1cccc(Cc2noc(CN(Cc3ccccn3)CC3CCCO3)n2)c1 (stereo not given) ?
RecA splice inh: -2.5; Mtb betalactam: -6; Mtb H37Rv: 3%

How did COc1cc(C(=O)N(CCN(C)C)CC2CCCN(Cc3ccccc3F)C2)ccc1C (stereo not given) do in these assays?
RecA splice inh: 2.0; Mtb betalactam: 7

What do the screens show for `Cc1cc(OC(=O)c2cccc(F)c2)c([N+](=O)[O-])c(=O)[nH]1`?
RecA splice inh: -0.4; Mtb betalactam: -3

How did COc1cccc(NC(=O)CS(=O)(=O)c2cn(CC(=O)N3CCOCC3)c3ccccc23)c1 do in these assays?
RecA splice inh: 2.5; Arbovirus inh: 0; Mtb betalactam: 3; Mtb H37Rv: 1%

How did COc1ccc(-n2c(C)cc(/C=C3\C(=N)N4N=C(CC(=O)N5CCOCC5)SC4=NC3=O)c2C)c(OC)c1 do in these assays?
RecA splice inh: -1.6; Mtb betalactam: 0

What do the screens show for `COCc1nnc(NC(=O)C2CCN(C(=O)c3ccco3)CC2)s1`?
RecA splice inh: -0.2; Mtb betalactam: 0

Results for CC(=O)N1CCCC(C(=O)c2ccc(Oc3ccccc3)cc2)C1 (stereo not given) ?
RecA splice inh: 1.9; Arbovirus inh: 1; Mtb betalactam: 4

Results for CCOc1ccc(N=C2NC(=O)CS2)cc1 ?
RecA splice inh: -1.4; Mtb betalactam: 6

How did COCCn1c(SCC(=O)Nc2ccc(OC)cc2)nnc1-c1ccoc1C do in these assays?
RecA splice inh: 2.9; Mtb betalactam: 2

How did COc1ccc(CCN2C(=S)N(c3ccc(Cl)cc3)C(=O)C2CC(N)=O)cc1OC (stereo not given) do in these assays?
RecA splice inh: 0.2; Mtb betalactam: -13; Mtb H37Rv: -2%

Results for CCOc1ccc(N2CC(C(=O)Nc3nnc(C4CCCCC4)s3)CC2=O)cc1 (stereo not given) ?
RecA splice inh: -1.9; Mtb betalactam: -4

Results for O=C(Cc1cccc(C(F)(F)F)c1)OCN1C(=O)c2ccccc2C1=O ?
RecA splice inh: 4.7; Mtb betalactam: 5

How did N#C/C(=C\c1ccc(OC(=O)c2ccccn2)cc1)C(N)=O do in these assays?
YopH PTP inh: -13; RecA splice inh: 4.1; Arbovirus inh: -2; Mtb betalactam: -6; Mtb H37Rv: 3%

What do the screens show for `Cc1ccc(-c2nn(-c3ccccc3)cc2C(=O)NCC(c2cccs2)N2CCOCC2)cc1` (stereo not given)?
RecA splice inh: -1.5; Mtb betalactam: 3

Results for O=C(N/N=C/c1ccc(Cl)s1)C(O)c1ccccc1 (stereo not given) ?
RecA splice inh: -2.7; Mtb betalactam: -5

Gathered by group: the compounds so far containing fluorine (five)
Results for COC(=O)CSc1nc(C)cc(C(F)(F)F)c1C#N ?
YopH PTP inh: -12; RecA splice inh: 0.8; Arbovirus inh: -9; Mtb betalactam: 42; Mtb H37Rv: 1%

Results for FC(F)(F)c1cccc(Cc2noc(CN(Cc3ccccn3)CC3CCCO3)n2)c1 (stereo not given) ?
RecA splice inh: -2.5; Mtb betalactam: -6; Mtb H37Rv: 3%

How did COc1cc(C(=O)N(CCN(C)C)CC2CCCN(Cc3ccccc3F)C2)ccc1C (stereo not given) do in these assays?
RecA splice inh: 2.0; Mtb betalactam: 7

What do the screens show for `Cc1cc(OC(=O)c2cccc(F)c2)c([N+](=O)[O-])c(=O)[nH]1`?
RecA splice inh: -0.4; Mtb betalactam: -3

Results for O=C(Cc1cccc(C(F)(F)F)c1)OCN1C(=O)c2ccccc2C1=O ?
RecA splice inh: 4.7; Mtb betalactam: 5

Other structures
Results for Cn1c(=NC(=O)c2cnccn2)sc2ccccc21 ?
YopH PTP inh: -27; RecA splice inh: 1.3; Arbovirus inh: 0; Mtb betalactam: 24; Mtb H37Rv: 3%

How did CCOC(=O)N1CCN(C(=O)CCn2c(=S)[nH]c3cc(OCC)c(OCC)cc3c2=O)CC1 do in these assays?
YopH PTP inh: -37; RecA splice inh: 1.3; Arbovirus inh: 1; Mtb betalactam: 0

How did NC(=O)CCC(NS(=O)(=O)c1ccc(Cl)cc1)C(=O)NCc1ccccc1Cl (stereo not given) do in these assays?
YopH PTP inh: 0; RecA splice inh: -1.0; Arbovirus inh: 0; Mtb betalactam: 6; Mtb H37Rv: 0%

Results for O=C(OCc1c(Cl)nc2sccn12)c1cc2c(s1)CCCC2 ?
YopH PTP inh: -38; RecA splice inh: -1.8; Arbovirus inh: 4; Mtb betalactam: 0

How did O=C(CSc1nnc2ccccn12)NCc1ccc2c(c1)OCO2 do in these assays?
RecA splice inh: -0.1; Arbovirus inh: -2; Mtb betalactam: -4; Mtb H37Rv: 4%

How did CCC(C)NC(=O)CN1C(=O)NC2NC(=O)NC21 (stereo not given) do in these assays?
RecA splice inh: -1.5; Mtb betalactam: -2

What do the screens show for `O=C(Cc1cccc(C(F)(F)F)c1)Nc1ccccc1`?
RecA splice inh: 2.8; Arbovirus inh: -7; Mtb betalactam: 0; Mtb H37Rv: -7%

Results for CC1(C)CC(=O)C(C=NCC(O)c2ccccc2)=C(O)C1 (stereo not given) ?
YopH PTP inh: -16; RecA splice inh: 6.5; Arbovirus inh: 1; Mtb betalactam: -2; Mtb H37Rv: -4%

How did CN1CCN(c2ccc(F)cc2N)CC1 do in these assays?
RecA splice inh: -0.4; Arbovirus inh: 2; Mtb betalactam: -2; Mtb H37Rv: 0%

Results for CCOC(=O)C(=O)N1CCN(c2cc3c(cc2[N+](=O)[O-])n(C)c(=O)n3C)CC1 ?
RecA splice inh: -1.0; Arbovirus inh: 3; Mtb betalactam: -8; Mtb H37Rv: -4%

Results for CCCC(O)(c1ccccc1)C(CN1CCOCC1)c1ccccc1 (stereo not given) ?
RecA splice inh: 3.8; Mtb betalactam: -5

What do the screens show for `c1ccc(OCCOCCN2CCOCC2)cc1`?
YopH PTP inh: -37; RecA splice inh: 0.8; Arbovirus inh: 5; Mtb betalactam: 0; Mtb H37Rv: 8%

Results for O=C(CSc1nnnn1-c1cccc2ccccc12)Nc1ccc(C(=O)O)cc1 ?
RecA splice inh: 0.1; Mtb betalactam: -2

What do the screens show for `COc1cc(-c2nnc(CSc3nnc(Nc4ccc(Oc5ccccc5)cc4)s3)o2)cc(OC)c1OC`?
YopH PTP inh: 20; RecA splice inh: 1.2; Arbovirus inh: 16; Mtb betalactam: 12; Mtb H37Rv: 22%

How did Cc1c(N=Cc2cccs2)c(=O)n(-c2ccccc2)n1C do in these assays?
YopH PTP inh: -31; RecA splice inh: 6.8; Arbovirus inh: 15; Mtb betalactam: -1; Mtb H37Rv: -1%

How did CC(=O)Nc1cccc(NC(=O)CSc2nc(C3CC3)nc3ccccc23)c1 do in these assays?
RecA splice inh: 1.6; Mtb betalactam: 5

Not all compounds are listed; count on the stated rates, not on these rows.
